# Screens (PubChem BioAssay)
# MT1-MMP act inh = inhibitors of human MT1-MMP activation. HT1080 RFP-PRO-GFP cells, GFP/RFP ratio fluorescence, overnight; percent of plate control window, DMSO zero. P50281. actives 0.061% (n = 360,000). AID 651647. GFP/RFP ratio change, % at 20 µM;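 active = GFP/RFP ratio change of at least 30% with cell ATP level not reduced by more than half and red fluorescence within 50% of control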; also: strong numbers were not always called active
#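 system = RFP-PRO-GFP reporter HT1080 cells | dosing = 20 µM single dose, 1% DMSO | timing = overnight cell settling, then overnight compound exposure, 37 °C, 5% CO2 | read-out basis = GFP/RFP fluorescence ratio | controls = DMSO and RFP-L50D-GFP cell wells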
# PABP FP inh = PABP-poly(A) binding inhibition. P11940. PABP-poly(A) RNA binding, fluorescence polarization. inhibition, % at 35 µM. actives 1% (n = 290,000);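 active = 50% or more with normal probe brightness, or confirmed in later tests; inconclusive = above 50% with abnormal brightness, or retests that disagree; inactive = below 50% or failed in later tests; about a fifth of its hits are not listed in these tables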;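 also: calls also rest on retests at 20 µM and on dose response follow-up; controls were probe without protein and protein plus probe with vehicle; some compounds called inactive have numbers as strong as hits; many hits fall short of the cut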
# Target sequence (P11940 whole entry, looked up): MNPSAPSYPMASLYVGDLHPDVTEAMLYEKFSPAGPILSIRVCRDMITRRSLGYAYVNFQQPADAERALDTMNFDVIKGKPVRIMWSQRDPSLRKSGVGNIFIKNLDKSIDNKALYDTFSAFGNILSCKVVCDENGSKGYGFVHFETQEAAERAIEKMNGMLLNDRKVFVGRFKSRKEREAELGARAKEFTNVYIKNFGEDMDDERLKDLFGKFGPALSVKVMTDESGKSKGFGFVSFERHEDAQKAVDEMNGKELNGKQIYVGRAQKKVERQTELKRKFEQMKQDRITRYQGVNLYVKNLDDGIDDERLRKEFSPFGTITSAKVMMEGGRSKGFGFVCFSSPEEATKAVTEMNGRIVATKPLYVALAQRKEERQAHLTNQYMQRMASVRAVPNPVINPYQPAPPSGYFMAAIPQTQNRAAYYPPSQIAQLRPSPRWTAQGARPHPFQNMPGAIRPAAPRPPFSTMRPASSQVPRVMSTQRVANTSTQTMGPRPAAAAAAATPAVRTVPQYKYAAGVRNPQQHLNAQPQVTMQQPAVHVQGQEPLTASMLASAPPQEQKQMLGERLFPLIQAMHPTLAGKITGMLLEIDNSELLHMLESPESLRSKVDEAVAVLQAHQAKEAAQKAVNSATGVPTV
# HIV Env fusion = blocks HIV Env-driven cell-cell fusion | HeLa-JRFL Env/CEM21 cell fusion, luciferase | inhibition, % at 12.3 µM | actives 1.1% (n = 360,000) | AID 651610;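 active = mean replicate inhibition score of at least 50 and every replicate individually at or above 50; inconclusive = only one of the two criteria met; inactive = mean below 50 and not all replicates reaching 50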;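 also: 0% = plate neutral controls and 100% = maraviroc near 300 nM; one replicate is shown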
# Rce1 inhib = yeast Ras-converting enzyme inhibition; Q03530; yeast membranes, quenched prenylated peptide cleavage fluorescence; calls only; actives 0.27% (n = 290,000); AID 2563;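 active = fall in fluorescence gain of 50% or more versus controls, with final raw signal at or below 3038400; inconclusive = same 50% fall but final raw signal above 3038400; inactive = fall in fluorescence gain under 50%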;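 also: plate controls were neutral control wells for no effect and wells lacking membranes for full effect; tested at 10 µM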
# CSC inhib = cancer stem cell inhibition; cancer stem cell-like cells viability, luminescence; inhibition, % at 7.5 µM; actives 1.1% (n = 300,000);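 active = mean at 75% or more and at least half the replicates too; inconclusive = mean and replicates disagree; tested in HMLE shEcad cells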;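 also: 0% = median of negative and 100% = median of positive control wells; the first replicate is given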
# eIF4H FP inh = inhibitors of RNA binding by human eIF4H; eIF4H fluorescence polarization binding assay; actives 0.94% (n = 290,000); inhibition, % at 35 µM; Q15056;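 active = 50% or more with normal probe brightness, or confirmed in later tests; inconclusive = above 50% with abnormal brightness, or retests that disagree; inactive = below 50% or failed in later tests; about a fifth of its hits are not listed in these tables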;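 also: calls also rest on retests at 20 µM and on dose response follow-up; 0% = protein and probe with vehicle and 100% = probe without protein; strong numbers were not always called active; many hits fall short of the cut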
# UUG fidelity = alters start codon recognition fidelity in yeast; S. cerevisiae UUG-firefly luciferase reporter, luminescence/redox ratio; activity score, % at 18.7 µM; actives 0.13% (n = 350,000);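 active = replicate mean at a twofold rise or more, about +100% in these data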;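 also: firefly luciferase made from a UUG start codon reports start codon fidelity; reporter light over untreated wells divided by growth signal over untreated wells; some hits fall short of that in this replicate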
# eIF4H FP inh retest = further read-out of eIF4H FP inh, marked with its call; inhibition, %; compound at 20 µM; confirmation average;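 mean of two retest wells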
# PABP FP inh retest = recorded beside PABP FP inh, whose call it bears; inhibition, %; compound at 20 µM; confirmation repeats;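 mean of two retest wells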
# MT1-MMP act inh RFP = also measured in MT1-MMP act inh; calls as there; RFP signal change, %; measured here: RFP expression control read;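 0 = vehicle wells; hits needed this value within 50% of zero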
# * = called active by the depositor; i = inactive; u = inconclusive; x = not tested or not shown; + = active, no number; & = joins results of further samples.
SMILES,MT1-MMP act inh,MT1-MMP act inh RFP,PABP FP inh,HIV Env fusion,Rce1 inhib,CSC inhib,eIF4H FP inh,UUG fidelity,others
COc1ccc(NC(=O)CSc2nnc(C3CC3)n2C)cc1S(=O)(=O)N1CCOCC1,0,4,x,x,x,1,x,-25,
CCC(C)[C@H](NC(=O)N1CCn2c1nc1ccccc12)C(=O)NCc1ccccc1 (stereo not given in full),1,-3,x,-4,i,-5,x,-6,
O=C(CSc1ccccc1C(=O)O)NC1CCCCCCC1,-2,3,2,x,i,-17,1,-6,
COc1ccccc1NC(=O)COC(=O)CCc1ccc(S(=O)(=O)N2CCOCC2)cc1,5,4,x,x,x,-8,x,-25,
N=c1n(CCN2CCCCC2)c2ccccc2n1CC(=O)c1ccc(Cl)c(Cl)c1,-2,-7,-17,-7,i,103*,2,-8,
Cc1noc(C)c1C(=O)OCC(=O)N1CCc2ccccc21,3,2,x,-21,x,20,x,-7,
Cc1[nH]c2ccccc2c1/C=N/NC(=O)c1ccc(N)cc1,4,5,-5,-8,i,-7,-6,-11,
C/C=C/c1ccc(OCCCN2C(=O)NC(C)(C)C2=O)c(OC)c1,1,-2,-5,-16,i,x,-4,7,
COc1ccccc1NC(=O)Nc1c(C)n(C)n(-c2ccccc2)c1=O,4,6,6,0,i,-9,3,-4,
COc1ccccc1CC(=O)Nc1ccc(O)cc1C(=O)O,3,11,16,8,i,3,-14,-8,
NS(=O)(=O)c1ccc(CNC(=O)c2ccccn2)cc1,-1,1,0,7,i,0,3,-15,
Cc1ccn2cc(CCNC(=O)C3CC=CCC3C(=O)O)nc2c1 (stereo not given),-4,2,-10,-14,x,-19,1,x,
CCc1ccc(C2=NNC(=Nc3c(C)n(C)n(-c4ccccc4)c3=O)SC2)cc1,-3,-1,-2,-7,i,26,-4,x,
Cc1cc(S(=O)(=O)NCc2ccco2)c(C)cc1Cl,-2,1,10,-1,i,10,-14,-9,
COc1ccc(C)cc1NS(=O)(=O)c1cn(C)c(=O)n(C)c1=O,1,0,2,-27,i,-6,-4,-19,
CCOC(=O)c1cnn(-c2cc(C)nc3c(-c4ccccc4)c(C)nn23)c1N,4,0,0,x,i,-6,9,-13,
Cc1ccc2c(c1)CCO[C@@]21O[C@H](CCO)C[C@H](O)[C@H]1O,3,7,x,-4,x,x,x,-4,
CC(=O)Nc1ccc(C2(c3ccc(NC(C)=O)cc3)NC(=O)c3ccccc32)cc1,-1,3,-2,7,i,-9,0,-25,
O=C(Nc1cc(Cl)ccc1N1CCCCC1)c1cccs1,-7,-11,4,52,i,42,-2,-16,
O=C(Nc1cc(S(=O)(=O)N2CCOCC2)ccc1N1CCCC1)C1COc2ccccc2O1 (stereo not given),-1,-1,8,-2,i,-7,1,-23,
Nc1ccc(CC(N)c2csc(Nc3cc(Oc4ccccc4)ncn3)n2)cc1 (stereo not given),-9,-9,x,-12,x,x,x,-24,
COC(=O)COc1ccc2c(=O)c(Oc3ccccc3)c(C)oc2c1,7,5,-5,5,i,-7,1,-19,
CCOc1nc(NC(C)C)nc(NC(C)C)n1,3,9,-3,0,x,-12,-11,-18,
COc1ccc(-c2cc(C(F)(F)F)nc(SCc3cccc(C(=O)O)c3)n2)cc1,5,4,5,x,x,-4,9,6,
CCc1noc(C)c1C(=O)Nc1sc(C(=O)N(C)C)c(C)c1C#N,4,1,14,-8,i,-2,1,-10,
COc1cc(NC(=O)c2cccc([N+](=O)[O-])c2C)ccc1NC(=O)c1ccco1,5,0,9,x,i,25,-3,-4,
CC1(c2ccc(OCC#N)cc2)C=C(c2ccc(OCC#N)cc2)n2nc(C(F)(F)F)nc2N1 (stereo not given),-33,-29,8,12,+,14,-6,x,
CC(C)c1ccc(C(C)NCCS(=O)(=O)c2ccc(Cl)cc2)cc1 (stereo not given),1,-1,-4,-5,i,1,-2,7,
Cc1c(NS(=O)(=O)c2cc(C(=O)OCC(=O)N3CCC(C)CC3)ccc2Cl)c(=O)n(-c2ccccc2)n1C,-1,3,-9,-1,i,-18,1,x,
CN1c2ccsc2C(O)=C(C(=S)Nc2ccc(F)c(Cl)c2)S1(=O)=O,2,1,41,-26,i,33,69,-31,eIF4H FP inh retest=3;PABP FP inh retest=5
O=C(O)c1cccc(-n2cccc2/C=C2\NC(=O)N(Cc3ccc(F)cc3)C2=O)c1,-4,-2,55*,21,i,-3,82,x,eIF4H FP inh retest=10;PABP FP inh retest=82*
COC(=O)CSc1nc(C)cc(N2CCOCC2)n1,1,4,-4,7,i,0,-4,x,
Cc1ccc(S(=O)(=O)N2CCCCC2)cc1C(=O)NCC1CCCO1 (stereo not given),7,6,-8,12,i,-18,-6,-14,
O=S(=O)(Nc1cccc2ccccc12)c1ccccc1,0,1,-7,7,i,x,-2,x,
CNC(=S)N1N=C(c2ccc(Br)cc2)CC1c1ccc(N(C)C)cc1 (stereo not given),-3,-7,u,-2,i,-3,u,x,
N/C(=N\OC(=O)CCCC(=O)O)c1ncc(C(F)(F)F)cc1Cl,-1,1,7,-9,i,0,-7,x,
CC(=O)C1=C(O)C(=O)N(Cc2ccccc2)C1c1cccc([N+](=O)[O-])c1 (stereo not given),4,2,2,23,i,-1,8,-2,
CCCCOc1ccccc1NC(=O)CSc1nnnn1C(C)(C)C,-2,2,-4,-15,i,-13,-5,-7,
CCCC(=O)Nc1ccc(N2CCN(C(=O)c3cccs3)CC2)cc1,-1,0,-6,28,i,-7,-4,x,
COc1ccc(CNC(=O)C(=O)NC2CCC(C)CC2)cc1 (stereo not given),1,-3,3,-5,i,-4,-3,-9,
COc1ccc(C2C(C#N)=C(N)Oc3c2oc(CO)cc3=O)c(OC)c1OC (stereo not given),-1,3,12,-215,i,-4,1,-14,
NCCc1nnc(SCC(=O)Nc2ccc(Br)cc2)o1,0,2,2,-4,i,-9,-5,-15,
COc1ccc(S(=O)(=O)Nc2nc3c(s2)CCCC3)cc1,x,x,3,10,i,-2,2,x,
CCC1CN(C)C2Cc3c([nH]c4ccccc34)C(=O)CC1C2C(=O)OC (stereo not given),-1,2,7,x,i,-4,-2,-15,
COC(=O)CCCNC(=O)c1ccc2oc(CCCc3ccccc3)nc2c1,3,-1,5,-18,i,0,4,7,
O=S(=O)(NCCC1=CCCCC1)c1ccc(F)cc1,3,2,6,1,i,-3,0,-1,
O=S(=O)(NC1CCCCCC1)c1cccc(Cl)c1,-1,-1,x,2,x,0,x,-7,
Cc1ccc(Cn2nnnc2CN2CCC(c3nc4ccc(Cl)cc4[nH]3)CC2)cc1,4,-8,13,75*,i,18,-3,-14,
CCN(C(=O)COc1ccccc1)C1CCCCC1,3,4,-6,7,i,1,4,-16,
O=C1CCC(C(=O)N2CCC(CO)CC2)CN1Cc1ccc(Cl)cc1 (stereo not given),-1,0,3,i,x,-15,-7,-10,
COc1cccc(C2NC(=O)NC(C)=C2C(=O)OCC2CCCCC2)c1 (stereo not given),-1,-4,-6,3,i,-22,1,-14,
Cc1cccc(COCC(Cc2ccccc2)N2CCN(C(=O)c3cccc(C)c3)CCC2=O)c1 (stereo not given),2,-2,-2,51,i,-4,2,6,
O=C(/C=C/[C@H]1O[C@@H](n2ccc(=O)[nH]c2=O)[C@H](O)[C@@H]1O)N[C@@H](Cc1ccccc1)C(=O)O,0,4,x,-8,x,x,x,24,
Cc1csc(=O)n1CCC(=O)OCC(=O)NCc1ccc(F)cc1,0,1,x,x,i,2,x,-18,
CN(CC(=O)Nc1ccccc1Cl)CC(=O)Nc1ccccc1[N+](=O)[O-],1,-2,2,10,i,0,-3,x,
O=C(O)CCC(=O)Nc1cccc(C(=O)Nc2cccc(Cl)c2)c1,-2,2,4,x,i,3,4,0,
O=C(c1ccc2c(c1)OCO2)N1CCN(CCN2C(=O)c3cccc4cccc(c34)C2=O)CC1,2,2,x,-6,x,x,x,-13,
CCN(CC)c1ccc(NC(=O)c2cccc(F)c2)c(C)c1,-4,-14,2,-221,i,45,2,19,
CC(C)N(C(=O)C[n+]1ccsc1N)c1ccccc1,4,3,9,9,i,-8,1,-6,
O=c1ccn([C@@H]2O[C@H](CNS(=O)(=O)c3csc(-c4ccno4)c3)[C@@H](O)[C@H]2O)c(=O)[nH]1,4,5,x,16,x,x,x,-11,

# Among those listed so far, these have two or more sulfur atoms:
SMILES,MT1-MMP act inh,MT1-MMP act inh RFP,PABP FP inh,HIV Env fusion,Rce1 inhib,CSC inhib,eIF4H FP inh,UUG fidelity,others
COc1ccc(NC(=O)CSc2nnc(C3CC3)n2C)cc1S(=O)(=O)N1CCOCC1,0,4,x,x,x,1,x,-25,
CN1c2ccsc2C(O)=C(C(=S)Nc2ccc(F)c(Cl)c2)S1(=O)=O,2,1,41,-26,i,33,69,-31,eIF4H FP inh retest=3;PABP FP inh retest=5
COc1ccc(S(=O)(=O)Nc2nc3c(s2)CCCC3)cc1,x,x,3,10,i,-2,2,x,
O=c1ccn([C@@H]2O[C@H](CNS(=O)(=O)c3csc(-c4ccno4)c3)[C@@H](O)[C@H]2O)c(=O)[nH]1,4,5,x,16,x,x,x,-11,

# Next part.
SMILES,MT1-MMP act inh,MT1-MMP act inh RFP,PABP FP inh,HIV Env fusion,Rce1 inhib,CSC inhib,eIF4H FP inh,UUG fidelity,others
CC1CC2=C(C(=O)O1)C(C)Nc1ccccc1N2 (stereo not given),0,0,-11,2,i,14,-21,-10,
O=C(Nc1c2c(nn1-c1ccc([N+](=O)[O-])cc1)CS(=O)(=O)C2)c1cccs1,0,-1,-4,2,i,21,-7,-15,
NS(=O)(=O)c1ccc(CNC(=O)CCSCCC(=O)NCc2ccc(S(N)(=O)=O)cc2)cc1,-5,-3,10,-11,i,2,11,x,
CCN(CC)S(=O)(=O)c1ccc(N2CCCC2)c(NC(=O)C2=NN(c3ccccc3)C(=O)CC2)c1,-1,-3,x,x,x,16,x,7,
COc1cccc(C(CNC(=O)c2ccc(Cl)c(S(=O)(=O)N3CCCC3)c2)N(C)C)c1 (stereo not given),2,-10,x,-38,x,-5,x,-5,
CCn1nc(C)cc1C(=O)N1CCCC(N2CCN(c3ccccc3OC)CC2)C1 (stereo not given),-1,0,-4,-3,i,4,-1,-18,
Cc1cc(C(=O)CN2C(=O)NC3(CCCCC3)C2=O)c(C)n1C,-1,6,1,-3,i,-3,36,-8,
CC(=O)Nc1ccc(S(=O)(=O)NNC(=O)CCC(=O)NCc2ccccc2)cc1,-2,8,x,x,x,-13,x,-26,
NC1=NC[C@H](CC2CCCCC2)N1CCc1cc(C(F)(F)F)cc(C(F)(F)F)c1,0,4,6,-2,i,102*,12,8,
COc1ccc(C(=O)NNC(=O)c2ccncc2)cc1,7,-2,12,x,i,-8,2,5,
CC1C2C(c3ccccc3)N(C)C(=O)N(C)C2N(C)C(=O)N1C (stereo not given),-1,4,56*,x,i,-11,57*,-11,
CCN(CC)S(=O)(=O)c1ccc(C)c(NC(=O)COc2ccc(Br)cc2Cl)c1,9,9,1,x,i,1,2,-18,
CCOC(=O)[C@@H]1[C@H]2COc3ccccc3[C@@H]2N2C(=O)N(c3cccc(C)c3)C(=O)[C@]12C,-1,-1,9,-9,i,-1,-5,3,
CCOC(=O)c1[nH]c(C)c(CCC(=O)O)c1C,-4&-2,1&-3,9&-1,-58,i,-9&0,-5&-11,-9&-19,
COc1ccc(C2=NOC(C(=O)N3CCN(C(=O)c4ccco4)CC3)C2)cc1OC (stereo not given),1,3,4,6,i,8,8,-11,
